Ran importin – inhibitors of Ran–importin-beta complex formation, primary screen, biochemical, CFP-Ran/YFP-importin-beta FRET, RCC1, cell-free (AID 434961); Regulator of chromosome condensation (Homo sapiens) + GTP-binding nuclear protein Ran …; CFP-Ran/YFP-importin-beta FRET, cell-free; active compounds read high; inhibition, %; 0.2% of 7,700 active;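 active = more than half of the replicate wells above 15% inhibition; inconclusive = exactly half above it; inactive = fewer than half above it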;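 also: 0% = DMSO wells and 100% inhibition = RanGDP control wells on each plate; stock of unstated strength diluted about 400-fold; mean of two wells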
* = called active by the depositor; ? = inconclusive.

Ran importin | canonical_smiles
-2.4 | COc1ccc(CN(C)C[C@@H]2Oc3c(NC(=O)c4cc(C)nn4C)cccc3C(=O)N([C@H](C)CO)C[C@@H]2C)cc1
-0.3 | CC(C)NC(=O)Nc1ccc2c(c1)C(=O)N([C@H](C)CO)C[C@@H](C)[C@H](CN(C)S(=O)(=O)c1cccs1)OCCCC[C@H](C)O2
-8.0 | C[C@H]1CN([C@@H](C)CO)C(=O)Cc2cc(NC(=O)CCC(F)(F)F)ccc2O[C@H]1CN(C)C(=O)Nc1cccc2ccccc12
-4.3 | C[C@H]1CCCCO[C@@H](CN(C)C(=O)CCCN(C)C)[C@@H](C)CN([C@@H](C)CO)C(=O)c2cc(NC(=O)c3ccncc3)ccc2O1
-1.6 | C[C@@H]1CCCCO[C@@H](CN(C)S(=O)(=O)c2cccs2)[C@H](C)CN([C@@H](C)CO)C(=O)c2cc(NS(C)(=O)=O)ccc2O1
? | C[C@@H]1CN([C@@H](C)CO)C(=O)c2cc(NC(=O)C3CC3)ccc2O[C@H]1CN(C)Cc1ccc(C(=O)O)cc1
1.8 | C[C@H](CO)N1C[C@H](C)[C@H](CN(C)C(=O)Nc2ccccc2)Oc2ncc(-c3cc4ccccc4o3)cc2C1=O
-5.4 | COc1ccc(S(=O)(=O)Nc2ccc3c(c2)CC(=O)N([C@H](C)CO)C[C@@H](C)[C@H](CN(C)S(=O)(=O)c2ccc(OC)cc2)O3)cc1
-0.9 | C[C@@H]1CN([C@@H](C)CO)C(=O)Cc2cc(NC(=O)Nc3ccccc3)ccc2O[C@@H]1CN(C)Cc1ccncc1
-3.9 | Cc1noc(C)c1S(=O)(=O)Nc1ccc2c(c1)C(=O)N([C@@H](C)CO)C[C@@H](C)[C@@H](CN(C)C(=O)Nc1ccccc1)OCCCC[C@H](C)O2
1.9 | Cc1noc(C)c1NC(=O)Nc1ccc2c(c1)C(=O)N([C@@H](C)CO)C[C@H](C)[C@H](CN(C)C(=O)CCCN(C)C)OCCCC[C@H](C)O2
-1.4 | C[C@@H]1CCCCO[C@@H](CN(C)C(=O)Nc2ccc(C(F)(F)F)cc2)[C@H](C)CN([C@@H](C)CO)C(=O)c2cc(NS(C)(=O)=O)ccc2O1
-1.0 | C[C@H](CO)N1C[C@H](C)[C@@H](CN(C)Cc2ccccc2)OCc2cn(nn2)CCCC1=O
1.4 | COc1ccc(NC(=O)Nc2ccc3c(c2)C(=O)N([C@@H](C)CO)C[C@H](C)[C@@H](CN(C)S(=O)(=O)c2cn(C)cn2)O3)cc1
2.7 | C[C@H](CO)N1C[C@H](C)[C@@H](CN(C)C)Oc2ccc(NC(=O)c3ccncc3)cc2C1=O

Four entries from above, as labelled records:
COc1ccc(S(=O)(=O)Nc2ccc3c(c2)CC(=O)N([C@H](C)CO)C[C@@H](C)[C@H](CN(C)S(=O)(=O)c2ccc(OC)cc2)O3)cc1
  Ran importin: -5.4
C[C@@H]1CN([C@@H](C)CO)C(=O)Cc2cc(NC(=O)Nc3ccccc3)ccc2O[C@@H]1CN(C)Cc1ccncc1
  Ran importin: -0.9
Cc1noc(C)c1S(=O)(=O)Nc1ccc2c(c1)C(=O)N([C@@H](C)CO)C[C@@H](C)[C@@H](CN(C)C(=O)Nc1ccccc1)OCCCC[C@H](C)O2
  Ran importin: -3.9
Cc1noc(C)c1NC(=O)Nc1ccc2c(c1)C(=O)N([C@@H](C)CO)C[C@H](C)[C@H](CN(C)C(=O)CCCN(C)C)OCCCC[C@H](C)O2
  Ran importin: 1.9

The list continues:
Ran importin | canonical_smiles
-8.6 | C[C@H]1CN([C@@H](C)CO)C(=O)Cc2cc(NC(=O)Nc3ccc4c(c3)OCO4)ccc2O[C@H]1CN(C)C(=O)NC1CCCCC1
-2.5 | C[C@@H]1CN([C@H](C)CO)C(=O)c2cc(NS(C)(=O)=O)ccc2O[C@H]1CN(C)C(=O)NC1CCCCC1
? | Cc1noc(C)c1NC(=O)Nc1ccc2c(c1)CC(=O)N([C@H](C)CO)C[C@H](C)[C@H](CN(C)C(=O)Nc1cccc3ccccc13)O2
-0.7 | C[C@@H]1CN([C@H](C)CO)C(=O)c2cccc(NC(=O)C3CCOCC3)c2O[C@H]1CN(C)S(=O)(=O)c1cn(C)cn1
-1.9 | C[C@@H]1CCCCO[C@@H](CN(C)C(=O)c2ccncc2)[C@@H](C)CN([C@@H](C)CO)C(=O)c2cc(NS(=O)(=O)c3ccccc3)ccc2O1
-0.6 | C[C@H]1CN([C@@H](C)CO)C(=O)c2cc(NC(=O)Nc3ccc4c(c3)OCO4)ccc2O[C@H]1CN(C)S(=O)(=O)c1cccs1
0.0 | C[C@@H]1CN([C@@H](C)CO)C(=O)c2cc(NC(=O)c3ccncc3)ccc2O[C@@H](C)CCCCO[C@@H]1CN(C)C
-1.1 | C[C@@H]1CN([C@H](C)CO)C(=O)c2cc(NC(=O)Nc3ccccc3)ccc2O[C@@H](C)CCCCO[C@@H]1CN(C)Cc1ccncc1
-3.8 | C[C@H](CO)N1C[C@H](C)[C@@H](CN(C)S(=O)(=O)c2cn(C)cn2)Oc2ccc(NS(=O)(=O)c3cn(C)cn3)cc2C1=O
-4.3 | C[C@H]1CN([C@@H](C)CO)C(=O)Cc2cc(NC(=O)CCC(F)(F)F)ccc2O[C@@H]1CN(C)C
-3.2 | C[C@@H]1CN([C@@H](C)CO)C(=O)CCCn2cc(nn2)CO[C@H]1CN(C)Cc1ccc(C(F)(F)F)cc1
-1.0 | C[C@H]1CCCCO[C@@H](CN(C)C(=O)CCCN(C)C)[C@@H](C)CN([C@@H](C)CO)C(=O)c2cc(NS(=O)(=O)c3ccccc3)ccc2O1
-3.3 | C[C@H](CO)N1C[C@H](C)[C@@H](CN(C)C(=O)NC2CCCCC2)Oc2ccc(NC(=O)Nc3cccc4ccccc34)cc2CC1=O
? | C[C@@H]1CN([C@@H](C)CO)C(=O)c2cccc(NC(=O)C3CCOCC3)c2O[C@@H]1CN(C)Cc1ccc(C(=O)O)cc1
12 | Cc1noc(C)c1S(=O)(=O)Nc1cccc2c1O[C@@H](CN(C)C(=O)NC1CCCCC1)[C@@H](C)CN([C@@H](C)CO)C2=O

Part of the list above, set out differently:
> C[C@H]1CN([C@@H](C)CO)C(=O)Cc2cc(NC(=O)Nc3ccc4c(c3)OCO4)ccc2O[C@H]1CN(C)C(=O)NC1CCCCC1
  Ran importin: -8.6

> C[C@@H]1CN([C@H](C)CO)C(=O)c2cc(NS(C)(=O)=O)ccc2O[C@H]1CN(C)C(=O)NC1CCCCC1
  Ran importin: -2.5

> Cc1noc(C)c1NC(=O)Nc1ccc2c(c1)CC(=O)N([C@H](C)CO)C[C@H](C)[C@H](CN(C)C(=O)Nc1cccc3ccccc13)O2
  Ran importin: ?

(continued)
Ran importin | canonical_smiles
-0.6 | C[C@H](CO)N1C[C@H](C)[C@@H](CN(C)S(=O)(=O)c2cccs2)Oc2c(NC(=O)c3ccc(-c4nccs4)cc3)cccc2C1=O
12 | C[C@@H]1CN([C@H](C)CO)C(=O)c2cccc(N(C)C)c2O[C@H]1CN(C)S(=O)(=O)c1ccccc1
0.9 | C[C@@H]1CN([C@@H](C)CO)C(=O)c2cc(NS(=O)(=O)c3cn(C)cn3)ccc2O[C@@H](C)CCCCO[C@H]1CN(C)C
2.3 | C[C@H](CO)N1C[C@H](C)[C@@H](CN(C)C)Oc2c(NC(=O)Nc3ccc(F)cc3)cccc2C1=O
-1.3 | CC(C)NC(=O)N(C)C[C@@H]1OCc2cnnn2CCCC(=O)N([C@@H](C)CO)C[C@H]1C
-0.7 | Cc1noc(C)c1S(=O)(=O)N(C)C[C@H]1Oc2ccc(NC(=O)NC(C)C)cc2CC(=O)N([C@@H](C)CO)C[C@H]1C
-0.1 | CC(C)NC(=O)N(C)C[C@H]1OCCCC[C@@H](C)Oc2ccc(NC(=O)Nc3ccc4c(c3)OCO4)cc2C(=O)N([C@@H](C)CO)C[C@H]1C
3.3 | C[C@@H]1CN([C@H](C)CO)C(=O)c2cc(NC(=O)Nc3cccc4ccccc34)ccc2O[C@@H](C)CCCCO[C@H]1CN(C)C
2.4 | Cc1noc(C)c1S(=O)(=O)N(C)C[C@H]1Oc2c(NC(=O)c3ccc(-c4nccs4)cc3)cccc2C(=O)N([C@H](C)CO)C[C@@H]1C
5.3 | C[C@@H]1CN([C@@H](C)CO)C(=O)Cc2cc(NS(=O)(=O)c3ccccc3)ccc2O[C@@H]1CN(C)C(=O)Nc1ccc2c(c1)OCO2
7.9 | C[C@H](CO)N1C[C@H](C)[C@H](CN(C)S(=O)(=O)c2cn(C)cn2)Oc2c(NS(C)(=O)=O)cccc2C1=O
-1.3 | C[C@@H]1CCCCO[C@@H](CN(C)C(=O)C2CCCCC2)[C@H](C)CN([C@@H](C)CO)C(=O)c2cc(NS(=O)(=O)c3cccs3)ccc2O1
-0.8 | Cc1noc(C)c1NC(=O)N(C)C[C@@H]1Oc2ccc(NS(=O)(=O)c3cccs3)cc2CC(=O)N([C@H](C)CO)C[C@@H]1C
0.8 | C[C@@H]1CN([C@H](C)CO)C(=O)c2cc(NC(=O)Cc3cn(C)c4ccccc34)ccc2O[C@H]1CN(C)C(=O)Nc1ccccc1
3.2 | C[C@H]1CN([C@@H](C)CO)C(=O)CCCn2cc(nn2)CO[C@@H]1CN(C)C(=O)Nc1ccc(-c2cccs2)cc1
-2.8 | Cc1noc(C)c1NC(=O)Nc1cccc2c1O[C@@H](CN(C)S(=O)(=O)c1cccs1)[C@H](C)CN([C@H](C)CO)C2=O
1.2 | C[C@@H]1CCCCO[C@H](CN(C)C(=O)C2CCCCC2)[C@H](C)CN([C@H](C)CO)C(=O)c2cc(N(C)C)ccc2O1
-2.5 | C[C@@H]1CN([C@@H](C)CO)C(=O)c2cccc(NS(=O)(=O)c3cn(C)cn3)c2O[C@@H]1CN(C)C(=O)Nc1ccc(C(F)(F)F)cc1
4.9 | C[C@@H]1CCCCO[C@@H](CN(C)Cc2ccc3c(c2)OCO3)[C@@H](C)CN([C@H](C)CO)C(=O)c2cc(NC(=O)CCCN(C)C)ccc2O1
-2.7 | C[C@@H]1CCCCO[C@@H](CN(C)Cc2ccc(C(=O)O)cc2)[C@H](C)CN([C@H](C)CO)C(=O)c2cc(NC(=O)C3CCCCC3)ccc2O1
-2.0 | C[C@@H]1CN([C@@H](C)CO)C(=O)c2cc(NC(=O)Nc3ccc4c(c3)OCO4)ccc2O[C@H]1CN(C)C(=O)NC1CCCCC1
1.5 | C[C@H](CO)N1C[C@H](C)[C@H](CN(C)Cc2ccc(C(=O)O)cc2)Oc2c(NC(=O)C3CCOCC3)cccc2C1=O
11 | C[C@H]1CCCCO[C@@H](CN(C)Cc2ccccc2)[C@@H](C)CN([C@@H](C)CO)C(=O)c2cc(NC(=O)Nc3ccc4c(c3)OCO4)ccc2O1
2.2 | C[C@H]1CCCCO[C@@H](CN(C)Cc2ccc(C(F)(F)F)cc2)[C@@H](C)CN([C@@H](C)CO)C(=O)c2cc(NS(C)(=O)=O)ccc2O1
-1.0 | C[C@H]1CN([C@@H](C)CO)C(=O)c2cccc(NS(=O)(=O)c3ccc(Cl)cc3)c2O[C@H]1CN(C)Cc1ccc(C(=O)O)cc1
3.1 | C[C@@H]1CN([C@@H](C)CO)C(=O)c2cc(NS(=O)(=O)c3cccs3)ccc2O[C@H]1CN(C)CC1CC1
-2.7 | C[C@H](CO)N1C[C@H](C)[C@@H](CN(C)C)Oc2c(NC(=O)Nc3ccccc3)cccc2C1=O
3.4 | C[C@H](CO)N1C[C@H](C)[C@H](CN(C)C(=O)Nc2ccccc2)OCCCC[C@H](C)Oc2ccc(NS(=O)(=O)c3ccccc3)cc2C1=O
11 | Cc1noc(C)c1S(=O)(=O)N(C)C[C@@H]1Oc2ccc(NS(=O)(=O)c3ccc(Cl)cc3)cc2CC(=O)N([C@H](C)CO)C[C@@H]1C
6.2 | C[C@@H]1CN([C@@H](C)CO)C(=O)CCCn2nncc2CO[C@@H]1CN(C)C(=O)Nc1ccccc1F
-6.0 | C[C@@H]1CN([C@@H](C)CO)C(=O)CCCn2nncc2CO[C@@H]1CN(C)Cc1ccccc1
-0.5 | C[C@@H]1CN([C@@H](C)CO)C(=O)c2cc(NC(=O)C3CC3)ccc2O[C@@H]1CN(C)S(=O)(=O)c1cccs1
? | C[C@@H]1CN([C@@H](C)CO)C(=O)Cc2cc(NS(C)(=O)=O)ccc2O[C@@H]1CN(C)Cc1ccc(-c2ccccc2)cc1
-1.4 | C[C@@H]1CN([C@@H](C)CO)C(=O)c2cc(NC(=O)CCCN(C)C)ccc2O[C@@H]1CN(C)C(=O)Nc1cccc2ccccc12
-0.8 | CC(C)NC(=O)N(C)C[C@@H]1Oc2ccc(N(C)C)cc2CC(=O)N([C@@H](C)CO)C[C@H]1C
-2.3 | COc1ccc(S(=O)(=O)N(C)C[C@@H]2Oc3c(NS(=O)(=O)c4cn(C)cn4)cccc3C(=O)N([C@H](C)CO)C[C@H]2C)cc1
3.8 | C[C@H](CO)N1C[C@H](C)[C@H](CN(C)Cc2ccc3c(c2)OCO3)Oc2ccc(NC(=O)CCCN(C)C)cc2C1=O
-0.7 | C[C@@H]1CN([C@H](C)CO)C(=O)c2cc(NS(C)(=O)=O)ccc2O[C@@H](C)CCCCO[C@@H]1CN(C)S(=O)(=O)c1ccccc1
2.2 | C[C@@H]1CN([C@@H](C)CO)C(=O)c2cc(NC(=O)C3CC3)ccc2O[C@@H]1CN(C)C(=O)Nc1cccc2ccccc12
1.4 | C[C@@H]1CN([C@H](C)CO)C(=O)Cc2cc(NS(=O)(=O)c3cn(C)cn3)ccc2O[C@H]1CN(C)CC1CC1
-1.0 | C[C@@H]1CN([C@@H](C)CO)C(=O)c2cc(NC(=O)Nc3ccc4c(c3)OCO4)ccc2O[C@@H](C)CCCCO[C@@H]1CN(C)C
-0.6 | Cc1noc(C)c1S(=O)(=O)N(C)C[C@@H]1OCCCC[C@@H](C)Oc2ccc(NC(=O)NC(C)C)cc2C(=O)N([C@@H](C)CO)C[C@@H]1C
2.9 | Cc1noc(C)c1NC(=O)N(C)C[C@@H]1Oc2ncc(C#Cc3ccccc3)cc2C(=O)N([C@H](C)CO)C[C@@H]1C

Only part of the results is shown. The share of hits here may be higher or lower than overall.
